# 2A firefly: lowers the firefly signal of an FMDV 2A StopGo reporter | HEK cells with a luciferase reporter of 2A StopGo recoding | Potency, µM (titrated, usually from 57.5 µM), for the others: at the highest dose signal change, negative = less light | 120,000 tested, 0.23% active | AID 1745856; active = well fitted falling curve with a large enough effect; inconclusive = small, poorly fitted or top-dose-only effect; inactive = no such curve, though single readings can be large or run the other way; note: nearly all actives have a fitted effect of over 60% in size; overnight with compound
# StopGo RLuc: lowers the Renilla signal of an FMDV 2A StopGo reporter. Potency, µM (highest dose often 57.5 µM), for the others: top-dose signal change, negative = less light. AID 1745857. HEK cells with a luciferase reporter of 2A StopGo recoding. 120,000 tested, 0.32% active; active means well fitted falling curve with a large enough effect; inconclusive means small, poorly fitted or top-dose-only effect; inactive means no such curve, though single readings can be large or run the other way; note: nearly all actives have a fitted effect of over 55% in size; overnight with compound
# * = called active by the depositor; ? = inconclusive; & = joins results of further samples; [ ] = another dose, or the depositor's remark. % is set by controls: 0 for no effect and ±100 for the full control effect; potency is the fitted concentration of half-maximal effect. The list is partial (hit frequency here may not be typical).
# The first 16 compounds, ahead of the listing:
SMILES,2A firefly,StopGo RLuc
Cc1cc(CNC(=O)c2cc(C)nc3ccccc23)c2ccccc2n1,-1%,-16%
O=C(O)/C=C/c1cc(Cl)ccc1OCc1ccccc1Br,20%,17%
O=C(CN1CCN(C(=O)CCNS(=O)(=O)c2ccc3ccccc3c2)CC1)Nc1ccc(F)cc1,-17%,22%
O=C(Nc1ccc2nc(SCC(=O)N3CCOCC3)sc2c1)c1cccc(Cl)c1,?,?
COc1ccc(C(=O)c2sc(Nc3ccccc3)nc2N)cc1,198%&130%[activator],81%&0%[activator]
Cc1c(Cl)ccc(S(=O)(=O)NCCCO)c1Cl,2%,139%[activator]
Cc1ccc(C(=O)NCCN2CCCC2)cc1,5%,-11%
O=C(O)C(c1c[nH]c2cc(Cl)ccc12)N1CCN(Cc2cccc3ccccc23)CC1 (stereo not given),-14%,-7%
CCCS(=O)(=O)c1ncc(Cl)c(C(=O)N(Cc2ccccc2)Cc2ccco2)n1,22µM*,4%
CCCOc1c(Cl)cc(/C=C/C(=O)c2ccc(O)c(OC)c2)cc1OCC,-4%,?
COc1ccccc1N1CCN(C(CNC(=O)C(=O)NCc2ccc(C)cc2)c2cccnc2)CC1 (stereo not given),?,7.1µM*
COc1cc(OC)c(OC)cc1CNC(=O)c1cc(Cl)ccc1O,-3%,46%[activator]
Cn1c(Sc2ncnc3sccc23)nnc1-c1ccc(F)cc1,5%,?
Cc1nn(C)c(C)c1CC(=O)Nc1nc(-c2ccc(F)cc2)c(C)s1,?,?
O=C(CC(=O)c1ccccc1Cl)c1ccccc1Cl,76%[activator],-7%[1.06 µM]
CCOC(=O)C1=C(C)OC(n2cccc2)=C(C#N)C1c1cc(OC)ccc1OC (stereo not given),-2%,4%

# This part in full, previewed entries included:
SMILES,2A firefly,StopGo RLuc
Cc1cc(CNC(=O)c2cc(C)nc3ccccc23)c2ccccc2n1,-1%,-16%
O=C(O)/C=C/c1cc(Cl)ccc1OCc1ccccc1Br,20%,17%
O=C(CN1CCN(C(=O)CCNS(=O)(=O)c2ccc3ccccc3c2)CC1)Nc1ccc(F)cc1,-17%,22%
O=C(Nc1ccc2nc(SCC(=O)N3CCOCC3)sc2c1)c1cccc(Cl)c1,?,?
COc1ccc(C(=O)c2sc(Nc3ccccc3)nc2N)cc1,198%&130%[activator],81%&0%[activator]
Cc1c(Cl)ccc(S(=O)(=O)NCCCO)c1Cl,2%,139%[activator]
Cc1ccc(C(=O)NCCN2CCCC2)cc1,5%,-11%
O=C(O)C(c1c[nH]c2cc(Cl)ccc12)N1CCN(Cc2cccc3ccccc23)CC1 (stereo not given),-14%,-7%
CCCS(=O)(=O)c1ncc(Cl)c(C(=O)N(Cc2ccccc2)Cc2ccco2)n1,22µM*,4%
CCCOc1c(Cl)cc(/C=C/C(=O)c2ccc(O)c(OC)c2)cc1OCC,-4%,?
COc1ccccc1N1CCN(C(CNC(=O)C(=O)NCc2ccc(C)cc2)c2cccnc2)CC1 (stereo not given),?,7.1µM*
COc1cc(OC)c(OC)cc1CNC(=O)c1cc(Cl)ccc1O,-3%,46%[activator]
Cn1c(Sc2ncnc3sccc23)nnc1-c1ccc(F)cc1,5%,?
Cc1nn(C)c(C)c1CC(=O)Nc1nc(-c2ccc(F)cc2)c(C)s1,?,?
O=C(CC(=O)c1ccccc1Cl)c1ccccc1Cl,76%[activator],-7%[1.06 µM]
CCOC(=O)C1=C(C)OC(n2cccc2)=C(C#N)C1c1cc(OC)ccc1OC (stereo not given),-2%,4%
O=C(CSc1ccc2ccccc2c1)N(C1CCCCC1)C1CCS(=O)(=O)C1 (stereo not given),1%,4%
COc1ccc(C(=O)NCc2nnc(SCC(=O)Nc3ccccc3)n2-c2ccccc2)cc1,-17%,82%[activator]
CCCCSCC(O)CSc1nc(-c2ccccc2)cc(-c2ccc(C)cc2)c1C#N (stereo not given),0%,17%
CCCc1nnc2sc(-c3ccc(CNC(=O)c4ccc(OC)c(Br)c4)cc3)nn12,2%,-1%
CC(C)NC(=O)c1ccn[nH]1,7%,2%
CCOc1c(Cl)cc(CNCc2cccc(C#N)c2)cc1OC,-8%,-1%
O=C(NCCN1CCCC1)c1nn(Cc2ccccc2)c(=O)c2ccccc12,-23%,-8%
CCC(=O)Oc1c(Sc2ccc(Cl)cc2)c(C)nn1C(C)(C)C,-21%,-10%
CCCCSc1nc2c(c(=O)[nH]c(=O)n2C)n1C(C)C,11%,5%
CN(CCC#N)c1ccc(/C=N/NC(N)=S)cc1,0%,8%
C/C(=N\NC(=O)c1cccs1)c1cccc(Br)c1,368%[activator],84%[activator]
Nc1nnc(SCC(=O)Nc2ccccc2)s1,25%,-7%
O=C(CCSC1CCc2ccccc2NC1=O)Nc1ccccc1 (stereo not given),7%,1%
O=C(NC1(C(=O)O)CCCCC1)C1CCC1,1%,6%
COc1ccc(CCNC(=O)CCCCn2c(=O)c3ccccc3n(CC(=O)Nc3c(C)cccc3C)c2=O)cc1OC,-13%,-7%
O=C(NCCc1ccccc1)c1cc(Nc2ccccc2)nc2ccccc12,-11%,-4%
CC1CCN(CCCNC(=O)c2ccccc2C(F)(F)F)CC1,-10%,-3%
Cc1ccc(NC(=O)C(=O)NCCN2CCN(C(=O)c3ccc(Br)cc3)CC2)cc1,21%,6%
CCOC(=O)c1ccc(Nc2c(C(=O)OCC)cnc3c(Cl)cccc23)cc1,4%,-3%
COC(=O)c1cc(NC(=O)OCc2ccccc2)cc(C(=O)OC)c1,12%,-1%
COc1ccc(CCNc2nc3cc(OC)c(OC)cc3c3nc(-c4ccccc4)nn23)cc1OC,0%,12%
COc1ccc(NC(=O)CSc2cn(CCNC(=O)c3c(F)cccc3F)c3ccccc23)cc1,8%,100%[activator]
Nc1ccccc1C(=O)NCCCNC(=O)c1cnccn1,5%,2%
Cc1cccc2c(C(=O)NCc3ccco3)cc(-c3cccnc3)nc12,53%[activator],63%[activator]

# A different layout for some results above:
# Results follow in this order: 2A firefly, StopGo RLuc
CC1CCN(CCCNC(=O)c2ccccc2C(F)(F)F)CC1
  -10%, -3%
Cc1ccc(NC(=O)C(=O)NCCN2CCN(C(=O)c3ccc(Br)cc3)CC2)cc1
  21%, 6%

# Continued:
SMILES,2A firefly,StopGo RLuc
Cc1cc(-c2ccc(C)c(S(=O)(=O)Nc3ccc(C)c(N(C)C)c3)c2)on1,-14%,103%[activator]
CC(C)(C#N)C(=O)NCCc1ccc(OCc2ccccc2)cc1,0%,?
C=CCNC(=O)NC(=O)CSc1nc(-c2ccco2)nc2ccccc12,0%,-12%
Cc1cnc2c(S(=O)(=O)N3CCCC3)cccc2c1,3%,12%
CCOc1ccc(NC(=O)CC2C(=O)N(c3ccc(OC)cc3)C(=O)N2CCC2=CCCCC2)cc1 (stereo not given),15%,35%[activator]
COc1ccc(CNC(=O)C(Cl)(Cl)Cl)cc1,25%,0%
O=C(Nc1cccnc1N1CCCCC1)c1cc(C2CC2)[nH]n1,18%,27%
O=C(O)c1cn(C2CC2)c2cc(N3CCNCC3)c(F)cc2c1=O,-12%,0%
COc1ccc(CNC(=O)C2=Cc3cccc(OC)c3OC2)cc1OC,-4%,2%
COc1ccc(CN(C(=O)Nc2cccc(OC)c2)C2CCN(C(C)=O)CC2)cc1,1%,-10%
Cc1ccccc1NC(=O)c1sc(N)c(C#N)c1C,150%[activator],0%
O=c1[nH]c(CN(CCO)CCO)nc2c1C1(CCCCC1)Cc1ccccc1-2,-12%,-11%
COc1ccc(CNC(=O)CN(c2ccc(C(C)C)cc2)S(=O)(=O)c2c(C)n[nH]c2C)cc1,4%,37%[activator]
COc1ccc(NC(=O)c2sc3nc(C)c(C(=O)Nc4ccc(C)cc4C)c(-c4ccccc4Cl)c3c2N)cc1,13%,-9%
CCOc1ccccc1CNC(=O)CN1C(=O)c2cccnc2Oc2ccc(C)cc21,-3%,-5%
N#C/C(=C/c1cccc(Oc2ccccc2)c1)C(N)=O,17%,-2%
CCOC(=O)c1noc2ncn(CC(=O)Nc3cc(C)c(Cl)cc3OC)c(=O)c12,-9%,-18%
COc1ccc2oc(-c3ccc(C)c(NC(=O)COc4cc(C)cc(C)c4)c3)nc2c1,4%,-11%
CCOC(=O)c1cccc(NC(=O)Nc2ccc3c(c2)N(C)C(=O)c2ccccc2S3)c1,10%,-7%
COc1cccc(-c2nc3ccccc3c(=O)o2)c1,340%[activator],64%[activator]
O=C(CCc1nc(-c2ccncc2)no1)Nc1ncc(Cc2ccccc2)s1,1%,-17%
CCCCCCCCCCCCCCCCNC(=O)CC#N,1%,3%
Cc1cccc(CNC(=O)c2ccc(N3Cc4ccccc4Oc4ncccc43)s2)c1,-16%,5%
CCn1c(NCCCO)nc2c1c(=O)[nH]c(=O)n2C,10%,14%
COc1ccccc1NC(=O)C1=C(C)Nc2nc(SCc3cc(C)ccc3C)nn2C1c1ccccc1 (stereo not given),-2%,7%
N#C/C(=C\c1ccccc1)c1nc(-c2cc3cc(Br)ccc3oc2=O)cs1,-10%,-9%
O=C(C1CCN(c2ncnc3c2nc2n3CCCCC2)CC1)N1CCN(c2cccc(Cl)c2)CC1,?,?
COc1cccc([C@@H]2Nc3ccc(C(=O)O)cc3[C@@H]3C=CC[C@@H]32)c1OC,-18%,-24%
O=C(Nc1ccccc1C(=O)NCCc1ccccc1)c1cnc2ccccc2n1,74%[activator],11%
Clc1ccc(-c2nc3ccccn3c2Nc2ccc3c(c2)OCCO3)s1,172%[activator],37%[activator]
O=C(COc1ccccc1Cl)OCc1cc(=O)n2nc(C3CCCCC3)sc2n1,0%,-9%
CC1=C(C)C(=O)C(CCCCC#CCCCC#CCO)=C(C)C1=O,-3%[11.5 µM],-9%
N#C/C(=C/c1ccc(-c2ccccc2)cc1)C(=O)Nc1ccc(N2CCOCC2)cc1,1%,7%
Cc1nc2cccnc2n1C1CCN(S(=O)(=O)N(C)C)CC1,16%,22%
O=C(/C=C/c1ccc(-c2ccc(Cl)c(Cl)c2)o1)c1ccc(Br)cc1,10%,-17%
CC(C)(C)c1ccc(NC(=O)c2ccc(CN3CCCC3=O)cc2)cc1,?,22µM*
CCc1cccc(N2C(=O)CS(=O)(=O)C23C(=O)N(Cc2cccc(C)c2)c2ccccc23)c1 (stereo not given),-9%,13%
CCc1nn2c(=O)cc(COC(=O)c3ccccc3NC(=O)COc3ccc(F)cc3)nc2s1,-3%,-6%
N#Cc1cc([N+](=O)[O-])ccc1NC(=O)COC(=O)C12CC3CC(CC(Br)(C3)C1)C2,-14%,-12%
COC(=O)c1ccc(OCC(O)Cn2cnc3cc(C)c(C)cc32)cc1 (stereo not given),24%,-3%
Cc1ccccc1NC(=O)c1c(C)oc2ccc(O)c(CN3CCCC(C)C3)c12 (stereo not given),-18%,-8%
CCCCn1c(=O)n(-c2ccc(Br)cc2F)c(=O)c2c3c(sc21)CN(C(C)=O)CC3,-16%,-11%
CCCN(CCC)CCCNC(=O)Cn1cnc2onc(-c3ccc(F)cc3)c2c1=O,-13%,-10%
CCCn1c(=O)c2sccc2n2c(CCCC(=O)N3CCN(c4cccc(Cl)c4)CC3)nnc12,49%[activator],74%[activator]
Cc1c(N(Cc2ccc(F)cc2)Cc2ccc(F)cc2)c(=O)n(-c2ccccc2)n1C,?,?
Cc1nc2cc(C(=O)Nc3ccccc3N3CCCC3=O)ccc2n1-c1ccccc1,16%,9%
CC(C)CN(C(=O)COC(=O)c1n[nH]c2ccccc12)C1CCS(=O)(=O)C1 (stereo not given),-2%,-3%
O=c1oc2ccc(Cl)cc2cc1-c1csc(Nc2cccc(F)c2)n1,7%,11%
Cn1c(-n2cccc2)c(-c2c(-c3ccc(F)cc3)[nH]c3c2c(=O)[nH]c(=O)n3C)c(=O)[nH]c1=O,-13%,-15%
CCOc1ccccc1CNC(=O)CN1C(=O)C2CCCCN2c2ccc(C(=O)N(C)C)cc21 (stereo not given),-5%,3%

# (listing goes on)
SMILES,2A firefly,StopGo RLuc
CCC(=O)N1CCc2cc(S(=O)(=O)NCCC(=O)Nc3cccc(SC)c3)ccc21,-8%,26%
CCC(CC)NC(=O)CSc1ccc2c(c1)OCCCO2,-1%,-5%
COc1ccc(N2CCN(C(=O)c3cc(S(=O)(=O)N4CCCCCC4)cn3C)CC2)cc1,0%,12%
Cc1c(C(=O)NCCSc2ccc(Cl)cc2)oc2c1C(=O)CCC2,61%[activator],-2%
COc1cc(C#N)ccc1OCC(=O)c1ccc2c(c1)CCC2,1%,0%
Cn1c(=O)c2c(ncn2CC(=O)Nc2cccc(F)c2)n(C)c1=O,0%,-5%
CNC(=O)c1ccc(NC(=O)CC2C=CCC2)cc1 (stereo not given),0%,-6%[1.06 µM]
CCc1nc(SCc2coc(-c3cccc(F)c3)n2)n[nH]1,0%,13%
CCc1ccc2oc(C(=O)Nc3cccc(Cl)c3C)cc(=O)c2c1,-3%&15%,-5%&-4%
CC(C)c1ccc2oc(-c3ccc(Cl)c(NC(=O)Cc4ccccc4)c3)nc2c1,-22%,-10%
CSc1ncc(C(=O)NCc2cccc(Br)c2)c(-c2ccccc2)n1,-8%,-9%
CCCNC(=O)NNC(=O)C(C)Oc1cccc(C(F)(F)F)c1 (stereo not given),1%,62%[activator]
COc1ccccc1-c1noc(CCCC(=O)Nc2ccccc2)n1,7%,14%
CCc1ccc(OCCCOc2ccc(Cl)cc2/C=N/NC(=O)c2ccccc2)cc1,75%[activator],41%[activator]
CCc1cc2c(cc3c(=O)n(CC(=O)NC(C)C)nc(CC)n32)s1,3%,-11%
Cc1ccc(Cl)cc1NC(=O)N[C@@H](C(=O)O)C(C)C,-13%,-11%
O=C(O)CCC(=O)N1N=C(c2ccsc2)CC1c1ccc(Br)cc1 (stereo not given),0%,6%
c1ccc2oc(CSc3ccc4c(c3)OCCO4)nc2c1,171%[activator],205%[activator]
